Bioassay records as filed in PubChem BioAssay.
hNpr1 antagonist: Natriuretic polypeptide receptor (hNpr1) antagonism - Primary qHTS; Atrial natriuretic peptide receptor 1 (Homo sapiens), P16066; HEK293 hNpr1 GloSensor cGMP, ANP-stimulated luminescence; Potency, µM (doses to about 46.3 µM), without a hit: top-dose activity change, negative = inhibition, most hits filed as inhibitors; 76,000 tested, 1.6% active; active = well fitted inhibition curve with a large enough effect; inconclusive = small, poorly fitted or top-dose-only effect; inactive = no such curve, though single readings can be large or run the other way;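 note: nearly all actives have a fitted effect of over 60% in size; nearly all hits also lower the signal before the agonist is added; a reference antagonist and vehicle were the controls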
Target sequence (P16066 whole entry, looked up): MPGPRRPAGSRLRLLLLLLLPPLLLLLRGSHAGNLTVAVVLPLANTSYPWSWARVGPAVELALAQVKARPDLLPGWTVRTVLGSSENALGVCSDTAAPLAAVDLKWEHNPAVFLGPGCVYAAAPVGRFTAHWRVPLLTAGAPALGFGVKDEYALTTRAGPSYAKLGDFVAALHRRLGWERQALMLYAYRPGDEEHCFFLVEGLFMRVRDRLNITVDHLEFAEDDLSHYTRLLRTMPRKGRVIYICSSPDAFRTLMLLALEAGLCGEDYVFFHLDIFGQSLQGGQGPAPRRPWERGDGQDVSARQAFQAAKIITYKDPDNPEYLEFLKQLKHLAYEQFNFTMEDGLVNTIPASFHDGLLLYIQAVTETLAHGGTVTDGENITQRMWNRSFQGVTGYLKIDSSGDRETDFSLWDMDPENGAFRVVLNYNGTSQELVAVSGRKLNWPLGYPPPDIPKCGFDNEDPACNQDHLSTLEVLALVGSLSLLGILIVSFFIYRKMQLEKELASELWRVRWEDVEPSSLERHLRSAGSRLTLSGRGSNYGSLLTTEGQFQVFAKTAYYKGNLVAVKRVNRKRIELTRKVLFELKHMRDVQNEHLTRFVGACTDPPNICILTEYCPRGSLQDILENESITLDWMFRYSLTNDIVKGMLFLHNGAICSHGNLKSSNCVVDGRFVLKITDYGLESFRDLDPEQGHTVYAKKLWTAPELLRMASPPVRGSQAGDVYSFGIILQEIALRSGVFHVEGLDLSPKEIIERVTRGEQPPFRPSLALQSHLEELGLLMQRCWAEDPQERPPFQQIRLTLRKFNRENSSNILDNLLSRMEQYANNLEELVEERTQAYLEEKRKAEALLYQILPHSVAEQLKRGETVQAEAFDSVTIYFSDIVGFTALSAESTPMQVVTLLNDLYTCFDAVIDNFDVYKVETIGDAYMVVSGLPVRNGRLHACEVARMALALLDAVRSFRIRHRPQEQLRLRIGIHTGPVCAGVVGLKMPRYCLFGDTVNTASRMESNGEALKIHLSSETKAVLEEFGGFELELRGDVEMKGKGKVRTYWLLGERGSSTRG
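HEK293 cells stably expressing human Npr1 and cGMP GloSensor pGS-40F, loaded 2 h with 2% GloSensor reagent, given compound 30 min at room temperature. Luminescence read before and 20 min after 0.1 nM hNppA.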
* marks the source's active call; other numbers are inactive results; ? = inconclusive; [ ] = dose if it differs, or a comment. % is set by controls: 0 for no effect and ±100 for the full control effect; potency is the fitted concentration of half-maximal effect. Not all compounds are listed; the hit share may differ from the screen's.

No.	molecule	hNpr1 antagonist
1	O=C(N[C@H]1CO[C@H]2[C@@H]1OC[C@@H]2n1cc(-c2ccccc2)nn1)c1ccc(C(F)(F)F)cc1	?
2	COc1ccc(Cl)cc1S(=O)(=O)N1CCCC(CNC(=O)c2ccco2)C1 (configuration not stated)	1%
3	CCc1nc(-c2c3n(c(=O)n(CC(=O)Nc4ccccc4F)c2=O)CCCCC3)no1	6%
4	COc1ccc(CCNc2ncnc3c2CN(c2ccccc2C)C(=O)CN3C)cc1	1%
5	O=C(Cc1c[nH]c2ccccc12)N1CCC(Oc2ccc(-c3noc(C4CC4)n3)cc2)C1 (configuration not stated)	?
6	Cc1cc(C(F)(F)F)nn1CC(=O)N1C[C@@H](Oc2cccnc2)C[C@H]1C(=O)NC1CC1	3%
7	O=C1CCCCC(C(=O)NC2CCCC2)N1 (configuration not stated)	7%
8	COc1ccc(Nc2ccc3c(n2)CN(Cc2ccccc2C)C(=O)CO3)cn1	-21%[70.6 µM]

Compounds above that have a CF3 group:
No.	molecule	hNpr1 antagonist
1	O=C(N[C@H]1CO[C@H]2[C@@H]1OC[C@@H]2n1cc(-c2ccccc2)nn1)c1ccc(C(F)(F)F)cc1	?
6	Cc1cc(C(F)(F)F)nn1CC(=O)N1C[C@@H](Oc2cccnc2)C[C@H]1C(=O)NC1CC1	3%

Further structures follow:
No.	molecule	hNpr1 antagonist
9	CN1C[C@@H](NS(=O)(=O)c2ccc(C#N)cc2)C[C@H]1c1nc(-c2cccnc2)no1	4%[70.6 µM]
10	CS(=O)(=O)NC[C@H]1Cn2c(-c3ccc(F)cc3)cnc2CO1	-2%[70.6 µM]
11	O=C(CCC1CCCC1)N1CCC2(CC1)CC(N(C(=O)c1ccccc1)C1CC1)CCO2 (configuration not stated)	?
12	CCN1CC(CN(C)Cc2nc(Cc3cccc(F)c3)no2)CC1=O (configuration not stated)	0%
13	O=C1NCCCCCCN(C(=O)CC2CCCCC2)[C@H]2C[C@H](c3nc(-c4cnccn4)no3)C[C@@H]12	-4%
14	COc1ccc(-c2cc(N3CCN(C(=O)c4ccncc4)CC3)n[nH]2)cc1	-1%
15	COc1cccc(-c2cc3c(=O)n(CCNC(=O)c4ccc(C(C)(C)C)cc4)ccn3n2)c1	-30%
16	CCc1nnsc1C(=O)NC(C)c1cnn(-c2ccccc2C)c1C (configuration not stated)	-30%
17	O=C(NCCc1nccs1)c1cn(CCN2CCNCC2)nn1	1%
18	C[C@@H]1CN(C(=O)c2cc(-c3ccsc3)n[nH]2)CC[C@@]1(O)C1CCOCC1	4%
19	Cc1ccc(CN2CCOC[C@H]2c2ncc(-c3cccc(F)c3)[nH]2)cc1	?
20	CN(C)Cc1nc(C(=O)N2CCCn3nc(CO)cc3C2)cs1	2%
21	Cc1nc(CNC(=O)c2cn[nH]c2-c2ccccc2)cc(=O)[nH]1	2%
22	O=C(NC1CC1)c1nc2sccn2c1Br	0%[70.6 µM]
23	Cn1cc(-c2cccc(OC(F)(F)F)c2)c2nc(CN3CCNC(=O)C3)cn2c1=O	-6%[70.6 µM]
24	O=C(N[C@H]1CO[C@H]2[C@@H]1OC[C@H]2OCc1ccccc1)c1ccccc1	4%[70.6 µM]
25	CC(C)c1ccc(CC(=O)N2CCCc3ncc(C(=O)N(C)c4ccccc4)cc32)cc1	?
26	CSc1ccc(CNC(=O)c2nnn3c2COC(c2ccc(Cl)cc2)C3)cc1 (configuration not stated)	-5%
27	Cc1noc2ccc(-c3cnn(Cc4ccccc4)c3)nc12	4%[70.6 µM]
28	Cc1nc(CCNC(=O)C2CCCC2)no1	4%
29	CS(=O)(=O)N1CCCN(C(=O)CCc2c[nH]c3ccccc23)CCNC(=O)CC1c1ccccc1 (configuration not stated)	-1%
30	CC(C)C[C@@H](NC(=O)C1=C[C@@H](NC(=O)c2cccnc2)[C@@H](O)[C@H](O)C1)C(N)=O	3%[70.6 µM]
31	CN(Cc1cc(C[C@@H]2C[C@H](NCc3ncc[nH]3)C2(C)C)no1)c1ccccc1	-3%[70.6 µM]
32	CNCc1cn(C[C@H]2O[C@@H](CC(=O)NCc3ccc(F)cc3)[C@H](O)[C@@H]2O)nn1	1%[70.6 µM]
33	CCOC(=O)c1oc2ccc(S(=O)(=O)N3CCCCCCNC(=O)[C@@H]4CCC[C@@H]43)cc2c1C	6%
34	O=C(NCc1nnc2c(-c3nc(C4CC4)no3)cccn12)c1cc(F)ccc1Cl	7%
35	Cc1ccc(N2CC(c3noc(-c4ccncc4)n3)CC2=O)cc1 (configuration not stated)	-10%
36	Cc1ccc(-c2cc3c(=O)n(CCNC(=O)c4cnccn4)ccn3n2)cc1C	6%
37	COc1cccc(C(=O)NCC2Cn3cccc3C(=O)N2CC(C)C)c1 (configuration not stated)	-1%
38	Cc1cccc(C(=O)NC2CCN(c3cc(-c4ccc(F)cc4)[nH]n3)C2)c1 (configuration not stated)	-16%
39	Cn1ccnc1C(=O)N1CCCCCNC(=O)[C@H]2C[C@H](C(=O)N3CCc4ccccc4C3)C[C@H]21	1%
40	Cc1nc2c(c(=O)[nH]1)CCN(C(=O)c1c(C)nn(-c3ccc(F)cc3)c1C)C2	-1%
41	O=C(NC1CCCCC1)[C@@H]1C[C@@H](O)CN1C1CCN(C(=O)c2n[nH]c(=O)c3ccccc23)CC1	3%
42	CNc1ccc(-c2noc([C@@H]3CCCN3Cc3ccc(CO)o3)n2)cn1	-8%[70.6 µM]
43	Cc1nc2c(NS(=O)(=O)c3ccc(Cl)cc3)cccn2n1	-2%
44	COc1ccc(CNC(=O)c2noc(-c3ccc(F)cc3)n2)cc1	-2%
45	CC(C)c1nc2c(c(-c3ccc(O)cc3)n1)CN(Cc1ccccn1)CC2	2%
46	CN(C)C[C@@H]1CN(C2CCOCC2)C[C@H]1NC(=O)Cc1ccsc1	2%
47	COc1ccc(C2C(C(=O)OC(C)(C)C)=C(C)N=C3SC=C(CC(=O)N4CCCC4)N32)cc1OC (configuration not stated)	2%
48	CS(=O)(=O)N(C1CC1)C1CCOC2(CCN(C(=O)C3(c4ccccc4)CC3)CC2)C1 (configuration not stated)	3%

Overlap with the part before: two compounds, then new ones.
No.	molecule	hNpr1 antagonist
47	COc1ccc(C2C(C(=O)OC(C)(C)C)=C(C)N=C3SC=C(CC(=O)N4CCCC4)N32)cc1OC (configuration not stated)	2%
48	CS(=O)(=O)N(C1CC1)C1CCOC2(CCN(C(=O)C3(c4ccccc4)CC3)CC2)C1 (configuration not stated)	3%
49	Cc1cccc(C)c1NC(=O)Cn1cccc1-c1nc(-c2ccc(F)cc2)no1	1%
50	O=C(C[C@@H]1C[C@H]2O[C@H](CNC3CCNCC3)[C@@H](O)[C@H]2O1)N1CCC(F)(F)C1	3%
51	Cc1nc(CC(=O)N2CCCC(C(=O)NCCCO)C2)cs1 (configuration not stated)	7%
52	CCc1noc(-c2cccn3c(CNC(=O)c4ccoc4)nnc23)n1	-8%
53	O=C1NCCN2CC3(CCN(S(=O)(=O)Cc4ccccc4)CC3)CC12 (configuration not stated)	2%
54	CCOc1ccc(NC(=O)c2cc3c(s2)CN(C2CCCC2)C3)cc1	-20%
55	O=C(O)CCC(=O)N1C[C@@H]2OCC(=O)N(c3ccccc3)[C@@H]2C1	3%[70.6 µM]
56	O=C(C1CCN(S(=O)(=O)N2CCOCC2)CC1)N1CCc2nc3cc[nH]n3c(=O)c2C1	-19%
57	CC[C@@H]1[C@@H](NC(=O)CCc2c(C)nc3ncnn3c2C)[C@@H]2CCO[C@H]12	5%
58	COc1ccc(CN2CCC3(CNc4ccccc4[S+](=O)([O-])N3)C2)cc1 (configuration not stated)	?
59	Cn1ccnc1C(=O)N1CCCCCCNC(=O)[C@@H]2C[C@@H](c3nc(-c4cccnc4)no3)C[C@@H]21	0%
60	CCn1c(C2CCCN(C(=O)c3ccco3)C2)nn(C)c1=O (configuration not stated)	-2%
61	COC(=O)CCCNC(=O)[C@@H]1[C@@H](NC(=O)NC2CCCCC2)CCN1C(=O)CC(C)(C)C	6%
62	Cc1cccc(NC(=O)c2ccc3c(c2)N(C)C2CCCCCN2C3=O)c1 (configuration not stated)	-1%
63	COc1cccc(CNC(=O)[C@@H]2C[C@@H](O)CN2C2CCN(C(=O)c3cccc4nccnc34)CC2)c1	6%
64	c1ccc(Nc2cc3c(cn2)CN(Cc2ccsc2)CCN3)cc1	-25%[70.6 µM]
65	Cc1ccc(-c2cccc(CN3CCCC(c4nc5ccc(C)cc5c(=O)[nH]4)C3)c2)c(C)c1 (configuration not stated)	-2%
66	COc1ccc(C2(C(=O)NCC(=O)N3CCCCCCNC(=O)CC3c3ccccc3)CC2)cc1 (configuration not stated)	3%
67	NC(=O)c1ccc(-c2nc3c([nH]2)CN(C(=O)CN2CCOCC2)CC3)cc1	-1%
68	CCCC(NC(=O)c1c(F)cccc1F)c1ccccc1 (configuration not stated)	-1%
69	N#Cc1ccc([S+](=O)([O-])N2CCC3(CC2)OCCN(CC2CC2)C3=O)cc1	18µM*
70	NC(=O)Cn1ccc2cc(OCC3CCN(C(=O)Oc4ccccc4Cl)CC3)cnc21	3%
71	CC[C@@H]1[C@H](NC(=O)c2cccc(N3CCS(=O)(=O)CC3)c2)[C@@H]2CCO[C@H]12	2%
72	COCCN1CCCCCC(O)c2cc(C(=O)N3CCN(c4ccc(OC)cc4)CC3)ccc21 (configuration not stated)	2%
73	Cc1ccc(C(=O)N2C[C@@H](CO)[C@H](c3ccncc3)C2)nc1	7%
74	CCOC(=O)c1cccc(NC(=O)c2ccc3c(c2)N(CC)C2CCCCN2C3=O)c1 (configuration not stated)	-28%
75	Cc1ccc(F)cc1S(=O)(=O)N1CC(c2nc(-c3ccncc3)no2)C1	?
76	Cn1c(CNC(=O)C2CCCN(C(=O)c3ccccc3)CCC(=O)NCC2)nc2ccccc21 (configuration not stated)	3%
77	COCc1nc(C2CCCN(C(=O)c3cc(OC)cc(OC)c3)C2)no1 (configuration not stated)	-22%
78	Cc1ccccc1CNC(=O)C1CCN(C(=O)c2ncn3c2COC(c2ccccc2)C3)CC1 (configuration not stated)	-11%
79	COc1ccc(F)c(CN2CCCC(O)(CN(C)Cc3cc(C)on3)C2=O)c1 (configuration not stated)	6%
80	O=C(Nc1cccc(C(F)(F)F)c1)N[C@H]1[C@H](O)[C@@H](N2CCC(Cc3ccccc3)CC2)[C@@H]2OC[C@H]1O2	-21%

Sorted by the number under hNpr1 antagonist (lowest first): some entries from above.
No.	molecule	hNpr1 antagonist
74	CCOC(=O)c1cccc(NC(=O)c2ccc3c(c2)N(CC)C2CCCCN2C3=O)c1 (configuration not stated)	-28%
80	O=C(Nc1cccc(C(F)(F)F)c1)N[C@H]1[C@H](O)[C@@H](N2CCC(Cc3ccccc3)CC2)[C@@H]2OC[C@H]1O2	-21%
78	Cc1ccccc1CNC(=O)C1CCN(C(=O)c2ncn3c2COC(c2ccccc2)C3)CC1 (configuration not stated)	-11%
79	COc1ccc(F)c(CN2CCCC(O)(CN(C)Cc3cc(C)on3)C2=O)c1 (configuration not stated)	6%

More entries follow:
No.	molecule	hNpr1 antagonist
81	COc1ccccc1-c1cnc2n[nH]c(-c3ccc(F)cc3C)c2n1	?
82	COC(=O)[C@@H]1Cc2c([nH]c3ccccc23)[C@H]2C[C@@H](N3CCOCC3)C[C@@H](c3ccc(F)cc3)N21	-2%
83	COCCNc1ncnc2c1CN(c1ccc(C)cc1)C(=O)N(C)C2	7%[70.6 µM]
84	O=C1CC(c2noc(-c3ccc(C(F)(F)F)cc3)n2)CN1C1CCCCC1 (configuration not stated)	?
85	O=C(O)C1CC2(CCN(C(=O)c3ccc4c(c3)OCCO4)CC2)CN1 (configuration not stated)	0%
86	Cc1ccc(CCNC(=O)Cn2nc(C)n(CCc3ccccc3)c2=O)o1	-2%
87	OC(c1ccccc1)c1cc2n(n1)CCN(Cc1cncn1C1CC1)C2 (configuration not stated)	-13%
88	CCOc1ccc(CN2CCN(Cc3nc4ccccc4[nH]3)CC2CCO)cc1 (configuration not stated)	10%
89	O=C1CC(c2ccccc2)N(C(=O)CNC(=O)c2ccco2)CCCCCN1 (configuration not stated)	2%
90	COc1ccccc1-c1[nH]nc2ncc(-c3cnn(C)c3)nc12	3%[70.6 µM]
91	COCc1nc(C2CCN(C(=O)c3ccncc3)C2)no1 (configuration not stated)	0%
92	Cc1ncoc1C(=O)N1CCCN(S(=O)(=O)c2ccccc2)CCC(=O)NCC1	3%
93	Cn1ccc(CN2CCn3c(nn(-c4ccc(F)cc4F)c3=O)C2)n1	-2%
94	CCOc1ccc(CC(=O)N2CCC[C@H]2c2nc(-c3ccc(OC)cc3)no2)cc1OCC	2%
95	Cc1ccc(CN2CCCOCCNC(=O)[C@@H]3CCCC[C@@H]32)s1	3%
96	Cn1ccc(NC(=O)[C@@H]2C[C@@H](c3ccc(F)cc3)N(CCOc3ccccc3)C2)n1	-29%[70.6 µM]
97	Cc1ccccc1C(=O)N1C2CCCC1CC(=O)C2	9%[70.6 µM]
98	Fc1ccccc1CN1CCOC[C@H](Oc2cnccn2)C1	5%[70.6 µM]
99	CN(CCC(N)=O)C(=O)C1CCCN1S(=O)(=O)c1ccc(F)cc1 (configuration not stated)	0%
100	Cc1ccc(C2Cn3nnc(C(=O)N4CCC(C(=O)NCc5cc(F)ccc5F)CC4)c3CO2)cc1 (configuration not stated)	-2%
101	CC(=O)N(C1CC1)C1CCOC2(CCN(C(=O)Nc3ccc4c(c3)OCCO4)CC2)C1 (configuration not stated)	-15%
102	C=CCOC(=O)C1=C(C)N=C2SC=C(CC(=O)NCC3CC3)N2C1c1ccc(OC)c(OC)c1 (configuration not stated)	-15%
